RGS16-Gao HTS: modulates binding between human RGS16 and Galphao | O15492+P09471 | bead-based flow cytometry RGS16-Galphao binding, fluorescence; actives lie on both sides | binding response (% of control), % at 10 µM | 220,000 compounds, 0.38% hits | AID 1441;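 active = below 25% or above 175%, edge rows of some plates excepted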;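 note: Galphao activated by GDP with aluminum fluoride before binding; 100% = wells without compound and 0% = beads without RGS; some results beyond the cut were filed as inactive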
Target sequence (O15492 whole entry, looked up): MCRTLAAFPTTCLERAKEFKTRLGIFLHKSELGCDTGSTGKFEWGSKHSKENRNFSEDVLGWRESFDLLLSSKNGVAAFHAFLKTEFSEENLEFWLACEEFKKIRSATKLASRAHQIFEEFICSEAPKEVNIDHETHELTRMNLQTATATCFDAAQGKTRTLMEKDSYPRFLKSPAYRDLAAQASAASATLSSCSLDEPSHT
Target sequence (P09471 whole entry, looked up): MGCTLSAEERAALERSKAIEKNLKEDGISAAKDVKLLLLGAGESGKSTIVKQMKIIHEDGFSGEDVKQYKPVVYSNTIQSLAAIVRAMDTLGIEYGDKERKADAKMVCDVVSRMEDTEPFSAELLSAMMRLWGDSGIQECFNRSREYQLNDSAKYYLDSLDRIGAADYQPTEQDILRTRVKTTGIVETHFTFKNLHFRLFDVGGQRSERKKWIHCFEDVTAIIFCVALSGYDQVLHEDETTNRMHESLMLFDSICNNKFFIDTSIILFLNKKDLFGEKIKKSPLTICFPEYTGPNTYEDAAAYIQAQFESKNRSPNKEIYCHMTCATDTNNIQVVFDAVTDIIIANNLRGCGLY
HSV augment: HSV replication enhancement | 220,000 compounds, 0.005% hits | HSV replication augmentation in cells, fold increase | maximum fold increase | AID 1956;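 active = peak rise of 1.5-fold or more in the series; tested in PC3 cells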;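 note: first round at 10 µM; read as green reporter fluorescence; hits show the peak of a series up to 25 µM; 1 = signal of infected wells without compound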
PKD1 inh: PKD1 (human) kinase inhibition; PKD1 kinase fluorescence polarization assay; inhibition, %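 (about 10 µM by stock and volumes)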; 200,000 compounds, 0.056% hits; AID 797;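 active = inhibition of 50% or more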;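 note: controls were vehicle for no effect and a reference inhibitor for full effect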
GALR2 agonist: agonists of human galanin receptor 2 (GALR2); O43603; GALR2-expressing cells, agonist activation read-out; activation, %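 (tested at 5 µM)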; 140,000 compounds, 0.48% hits;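 active = above mean plus 3 SD of all compounds, about 5% in these data, not always enough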;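 note: 0% = vehicle buffer wells and 100% = reference agonist at full effect; tested in CHO reporter cells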
Target sequence (O43603 whole entry, looked up): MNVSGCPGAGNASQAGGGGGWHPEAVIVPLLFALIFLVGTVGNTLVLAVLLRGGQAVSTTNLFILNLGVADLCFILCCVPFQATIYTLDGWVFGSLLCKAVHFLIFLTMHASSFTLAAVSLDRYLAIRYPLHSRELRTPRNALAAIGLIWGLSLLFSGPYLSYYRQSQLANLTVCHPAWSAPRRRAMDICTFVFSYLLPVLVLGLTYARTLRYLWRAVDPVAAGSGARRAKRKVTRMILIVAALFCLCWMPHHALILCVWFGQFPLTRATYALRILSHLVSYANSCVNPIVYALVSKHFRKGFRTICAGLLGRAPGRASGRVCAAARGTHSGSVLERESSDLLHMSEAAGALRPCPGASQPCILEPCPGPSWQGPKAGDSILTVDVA
INS promoter inh: TRM-6 insulin promoter activity inhibition; TRM-6 cells (human fetal islet line), insulin promoter-eGFP reporter, imaging; reporter expression induced with tamoxifen; inhibition, % at 2 µM; 130,000 compounds, 0.9% hits;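 active = inhibition above the mean plus 3 SD, with well images judged a real hit on visual review, cut at about 60% in these data, passing the limit was not always enough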
INS promoter inh cell count: further read-out of INS promoter inh, marked with its call; normalized cell count, %; measured here: cell count, toxicity; reference of the scale not given here;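 cells exposed to compound for 48 h; stained nuclei by imaging scaled within each plate; lower means fewer cells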
HSV augment primary fold: second read-out of HSV augment, no call of its own (marks repeat the call); fold increase; compound at 10 µM; measured here: primary screen fold increase 10 uM; tested in PC3 cells;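 GFP signal in the first replicate; 1 = infected wells without compound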
The depositor's hits bear a star. Not a hit list; overall some 1.3% were active at least once.

COc1ccc2oc(=O)c(-c3nc4ccccc4o3)cc2c1 was read as RGS16-Gao HTS 98, HSV augment inactive, PKD1 inh -4, GALR2 agonist 0.5, INS promoter inh -32, INS promoter inh cell count 57 and HSV augment primary fold 0.83.
Screening CCOc1ccc2nc(SCC(=O)N(C)C3CCS(=O)(=O)C3)[nH]c2c1 (configuration not stated) returned RGS16-Gao HTS 98, HSV augment inactive, PKD1 inh 6, GALR2 agonist 1.1 and HSV augment primary fold 0.98.
Cc1ccc(NS(=O)(=O)c2cc([N+](=O)[O-])ccc2NNC(=S)Nc2cccc(Cl)c2)c(C)c1 was read as RGS16-Gao HTS 100, HSV augment inactive, PKD1 inh 5, GALR2 agonist -1.9, INS promoter inh 3, INS promoter inh cell count 68 and HSV augment primary fold 1.1.
Screening NC1=NC(c2ccc(Cl)cc2)n2c(nc3ccccc32)N1 (configuration not stated) returned RGS16-Gao HTS 107, HSV augment inactive, PKD1 inh 4, GALR2 agonist -0.3, INS promoter inh -17, INS promoter inh cell count 138 and HSV augment primary fold 0.86.
CCC(NS(=O)(=O)c1ccc(OC)cc1)C(=O)O (configuration not stated) was read as RGS16-Gao HTS 99, HSV augment inactive, PKD1 inh 1, GALR2 agonist -1.8, INS promoter inh 0, INS promoter inh cell count 21 and HSV augment primary fold 0.94.
Screening COc1ccc(-n2nnc3c(SCc4ccccc4)ncnc32)cc1 returned RGS16-Gao HTS 97, HSV augment inactive, PKD1 inh -2, GALR2 agonist -0.5, INS promoter inh 7, INS promoter inh cell count 124 and HSV augment primary fold 0.87.
Screening Cc1no[n+]([O-])c1COc1ccc(/C=N/n2nnnc2N)cc1 returned RGS16-Gao HTS 108, HSV augment inactive, PKD1 inh -12, GALR2 agonist -1.2, INS promoter inh 0, INS promoter inh cell count 93 and HSV augment primary fold 1.
Screening Cc1ccc(S(=O)(=O)NC(=O)Nc2ncc3c(n2)CC(c2ccco2)CC3=O)cc1 (configuration not stated) returned RGS16-Gao HTS 14*, HSV augment inactive, PKD1 inh -13, GALR2 agonist -1.4 and HSV augment primary fold 1.4.
Screening CCOC(=O)c1[nH]c(C)c(C(=O)OCCOc2cccc(C)c2)c1C returned RGS16-Gao HTS 80, HSV augment inactive, PKD1 inh -2, GALR2 agonist -0.8 and HSV augment primary fold 1.1.
Screening O=C1/C(=C/c2ccccc2O)SC(=S)N1Cc1cccnc1 returned RGS16-Gao HTS 122, HSV augment inactive, PKD1 inh 0, GALR2 agonist -1.2, INS promoter inh 45, INS promoter inh cell count 85 and HSV augment primary fold 0.76.
O=C(O)c1cccc(CN2C(=O)S/C(=C/c3ccccc3[N+](=O)[O-])C2=O)c1 was read as RGS16-Gao HTS 101, HSV augment inactive and HSV augment primary fold 0.97.
For O=c1cc(O)c2sc(Nc3cccc(C(F)(F)F)c3)nc2[nH]1 the results were RGS16-Gao HTS 108, HSV augment inactive, PKD1 inh -1, GALR2 agonist -0.8, INS promoter inh 33, INS promoter inh cell count 87 and HSV augment primary fold 0.83.
CC(C)(C)c1ccc(C(=O)Nc2ccc(CC(=O)O)cc2)o1 was read as RGS16-Gao HTS 97, HSV augment inactive, PKD1 inh -2, GALR2 agonist -2.7 and HSV augment primary fold 1.1.
O=C(Cn1c(-c2ccccn2)nc2ccccc21)NCCN1CCOCC1 was read as RGS16-Gao HTS 96, HSV augment inactive, PKD1 inh -2, GALR2 agonist -1.0, INS promoter inh 62, INS promoter inh cell count 129 and HSV augment primary fold 0.9.
Cc1c(NC(=O)CN2CCN(c3ccc(F)cc3)CC2)c(=O)n(-c2ccccc2)n1C was read as RGS16-Gao HTS 102, HSV augment inactive, PKD1 inh -9, INS promoter inh 0, INS promoter inh cell count 137 and HSV augment primary fold 1.1.
`CN(C)CC(C)(C)CNC(=O)CC1C(=O)NCCN1Cc1ccc(-c2ccccc2)cc1` (configuration not stated) gave RGS16-Gao HTS 99, HSV augment inactive, PKD1 inh 6, INS promoter inh 11, INS promoter inh cell count 151 and HSV augment primary fold 1.2.
`COc1ccc(CCNC(=S)NC2CCN(Cc3ccccc3)CC2)cc1OC` gave RGS16-Gao HTS 102, HSV augment inactive, PKD1 inh 5 and HSV augment primary fold 0.88.
For Cc1noc(C)c1COc1cccc(C(=O)N2CCc3ccccc32)c1 the results were RGS16-Gao HTS 95, HSV augment inactive, PKD1 inh -2, INS promoter inh -113, INS promoter inh cell count 55 and HSV augment primary fold 1.
Cc1nc2sc(C(c3ccco3)N3CCc4ccccc4C3)c(O)n2n1 (configuration not stated) was read as HSV augment inactive, PKD1 inh 13, GALR2 agonist -1.5, INS promoter inh -50, INS promoter inh cell count 88 and HSV augment primary fold 1.
Cc1ccc2c(c1)c1cccc3c1n2CCN3CCC(N)=O was read as RGS16-Gao HTS 61, HSV augment inactive, PKD1 inh -12, GALR2 agonist 0.3, INS promoter inh 46, INS promoter inh cell count 117 and HSV augment primary fold 1.2.
C#CCOCCOCCOCCNc1nc(N2CCN(C(=O)[C@H](CCCCN)n3cc([C@@H](N)CO)nn3)CC2)nc(N2CCN(C(=O)[C@H](Cc3ccc(O)cc3)n3cc([C@@H](N)CC(C)C)nn3)CC2)n1 was read as RGS16-Gao HTS 101, HSV augment inactive, PKD1 inh -2 and HSV augment primary fold 0.77.
CCC(=O)OCn1nnc2ccccc2c1=O was read as RGS16-Gao HTS 99, HSV augment inactive, PKD1 inh -2, INS promoter inh 6, INS promoter inh cell count 137 and HSV augment primary fold 1.
Screening COc1ccc(Nc2ccc(C(N)=O)cc2[N+](=O)[O-])cc1 returned RGS16-Gao HTS 108, HSV augment inactive, PKD1 inh -9, INS promoter inh 45, INS promoter inh cell count 146 and HSV augment primary fold 0.95.
`O=C(NCC(F)(F)F)Nc1ccccn1` gave RGS16-Gao HTS 101, HSV augment inactive, PKD1 inh -6, GALR2 agonist -0.8, INS promoter inh -25, INS promoter inh cell count 174 and HSV augment primary fold 0.84.
Screening CCOc1cccc(C(=O)NC(=S)Nc2ccc(N3CCN(CC)CC3)cc2)c1 returned RGS16-Gao HTS 102, HSV augment inactive, PKD1 inh 0 and HSV augment primary fold 0.81.
For CCN(CC(=O)NC1CCCCCC1)S(=O)(=O)c1ccccc1 the results were RGS16-Gao HTS 99, HSV augment inactive, PKD1 inh -9, GALR2 agonist -2.8, INS promoter inh 7, INS promoter inh cell count 92 and HSV augment primary fold 1.
Screening CSCCC(NC(=O)c1c(C)oc2c1CCCC2)C(=O)O (configuration not stated) returned RGS16-Gao HTS 101, HSV augment inactive, PKD1 inh -6, GALR2 agonist 0.0, INS promoter inh 9, INS promoter inh cell count 70 and HSV augment primary fold 0.78.
For C=C(C)C1Cc2c(C)nn(-c3ccccc3)c2C1 (configuration not stated) the results were RGS16-Gao HTS 115, HSV augment inactive, PKD1 inh -2, GALR2 agonist -2.5, INS promoter inh -9, INS promoter inh cell count 72 and HSV augment primary fold 1.
COC(=O)C1ON2OC(C(=O)OC)C(C(=O)OC)C2C1CC(C)=O (configuration not stated) was read as RGS16-Gao HTS 104, HSV augment inactive, PKD1 inh -8, GALR2 agonist -1.6, INS promoter inh -36, INS promoter inh cell count 140 and HSV augment primary fold 0.9.
Screening O=C(CCc1nnc(CCCCc2ccccc2)o1)N1CCCC(O)C1 (configuration not stated) returned RGS16-Gao HTS 101, HSV augment inactive and HSV augment primary fold 1.1.
For CCCNc1c(N)c(=O)c1=O the results were RGS16-Gao HTS 102, HSV augment inactive and HSV augment primary fold 0.92.
Screening COc1ccc(CCC(=O)NNC(=S)NCc2ccc(F)cc2)cc1 returned RGS16-Gao HTS 106, HSV augment inactive, PKD1 inh 6 and HSV augment primary fold 0.84.
Screening CC(C)(C)NC(=O)C(c1ccncc1)N(C(=O)Cn1nnc(-c2ccc(F)cc2)n1)c1ccc(F)cc1 (configuration not stated) returned RGS16-Gao HTS 112, HSV augment inactive, PKD1 inh -1, INS promoter inh 33, INS promoter inh cell count 130 and HSV augment primary fold 0.82.
For COC(=O)c1ccc(Oc2cc(C)nc(SC)n2)cc1 the results were RGS16-Gao HTS 96, HSV augment inactive, PKD1 inh 0, GALR2 agonist -0.8, INS promoter inh -73, INS promoter inh cell count 60 and HSV augment primary fold 0.68.
For CCOC(=O)N1CCN(C(=O)/C(=C/c2cccc3ccccc23)NC(=O)c2ccc(OC)cc2)CC1 the results were RGS16-Gao HTS 102, HSV augment inactive, PKD1 inh -3, GALR2 agonist -3.5, INS promoter inh 0, INS promoter inh cell count 104 and HSV augment primary fold 0.99.
For CCCC1=[N+](CC(=O)c2ccc(C)cc2)CCn2cccc21 the results were RGS16-Gao HTS 101, HSV augment inactive, PKD1 inh 2, GALR2 agonist -0.5 and HSV augment primary fold 1.2.
`Cc1ccc(-c2nnc(N)o2)cc1` gave RGS16-Gao HTS 116, HSV augment inactive, PKD1 inh 4, GALR2 agonist -0.7, INS promoter inh 50, INS promoter inh cell count 89 and HSV augment primary fold 0.95.
Screening O=c1[nH]cnc(O)c1C(c1cccc([N+](=O)[O-])c1)c1c(O)nc[nH]c1=O returned RGS16-Gao HTS 104, HSV augment inactive and HSV augment primary fold 0.98.
`OC1(c2ccccc2)C/C(=N\n2cnnc2)C=C1c1ccccc1` (configuration not stated) gave RGS16-Gao HTS 95, HSV augment inactive, PKD1 inh -1, GALR2 agonist -2.5, INS promoter inh 17, INS promoter inh cell count 89 and HSV augment primary fold 0.81.
For COc1cccc(NC(=O)C2C3C=CC4(O3)C2C(=O)N(C2CC2)C4C(=O)NC2CCCCC2C)c1 (configuration not stated) the results were RGS16-Gao HTS 104, HSV augment inactive, PKD1 inh 4, GALR2 agonist -2.4, INS promoter inh inactive, INS promoter inh cell count 50 and HSV augment primary fold 1.1.

Quoted at random: 4 entries already listed
For CCCNc1c(N)c(=O)c1=O the results were RGS16-Gao HTS 102, HSV augment inactive and HSV augment primary fold 0.92.
`O=C(NCC(F)(F)F)Nc1ccccn1` gave RGS16-Gao HTS 101, HSV augment inactive, PKD1 inh -6, GALR2 agonist -0.8, INS promoter inh -25, INS promoter inh cell count 174 and HSV augment primary fold 0.84.
Screening COc1ccc(Nc2ccc(C(N)=O)cc2[N+](=O)[O-])cc1 returned RGS16-Gao HTS 108, HSV augment inactive, PKD1 inh -9, INS promoter inh 45, INS promoter inh cell count 146 and HSV augment primary fold 0.95.
`Cc1ccc(-c2nnc(N)o2)cc1` gave RGS16-Gao HTS 116, HSV augment inactive, PKD1 inh 4, GALR2 agonist -0.7, INS promoter inh 50, INS promoter inh cell count 89 and HSV augment primary fold 0.95.

Later entries
For CN(Cc1nc(-c2cccs2)no1)CC1COCCO1 (configuration not stated) the results were RGS16-Gao HTS 99, HSV augment inactive, PKD1 inh 2 and HSV augment primary fold 0.93.
`CC(C)(C)C1CCC(=NNC(=O)CC(=O)NCc2ccccc2)CC1` (configuration not stated) gave RGS16-Gao HTS 107, HSV augment inactive, PKD1 inh 1, GALR2 agonist -0.8, INS promoter inh 45, INS promoter inh cell count 112 and HSV augment primary fold 0.94.
CC(=O)Nc1ccccc1OC(C)C(=O)N1CC(C)CC(C)C1 (configuration not stated) was read as RGS16-Gao HTS 81, HSV augment inactive and HSV augment primary fold 1.
Screening CC(=O)N1CCc2cc(S(=O)(=O)NC(Cc3ccccc3)C(=O)NCCN3CCCCC3C)ccc21 (configuration not stated) returned RGS16-Gao HTS 98, HSV augment inactive, PKD1 inh 1 and HSV augment primary fold 0.97.
For C/C(=N\NC(=O)c1ccc([N+](=O)[O-])cc1)c1c(O)cc(C)oc1=O the results were RGS16-Gao HTS 101, HSV augment inactive, PKD1 inh 5 and HSV augment primary fold 0.9.
Screening COc1ccc(Nc2nc3ccccc3c(=O)s2)c(OC)c1 returned RGS16-Gao HTS 97, HSV augment inactive, PKD1 inh 5, GALR2 agonist -0.6 and HSV augment primary fold 0.97.
Screening COc1ccc(CNC(=O)COC(=O)C2CCC(C(C)(C)C)CC2)cc1 (configuration not stated) returned RGS16-Gao HTS 108, HSV augment inactive, PKD1 inh 0, GALR2 agonist 1.5, INS promoter inh -72, INS promoter inh cell count 89 and HSV augment primary fold 0.98.
For c1csc(CSc2nnc3sc4ccccc4n23)c1 the results were RGS16-Gao HTS 95, HSV augment inactive, PKD1 inh -3, GALR2 agonist -0.8, INS promoter inh 57, INS promoter inh cell count 114 and HSV augment primary fold 0.77.

3 compounds from above, ordered by molar mass, high to low.
Screening CC(=O)N1CCc2cc(S(=O)(=O)NC(Cc3ccccc3)C(=O)NCCN3CCCCC3C)ccc21 (configuration not stated) returned RGS16-Gao HTS 98, HSV augment inactive, PKD1 inh 1 and HSV augment primary fold 0.97.
`CC(C)(C)C1CCC(=NNC(=O)CC(=O)NCc2ccccc2)CC1` (configuration not stated) gave RGS16-Gao HTS 107, HSV augment inactive, PKD1 inh 1, GALR2 agonist -0.8, INS promoter inh 45, INS promoter inh cell count 112 and HSV augment primary fold 0.94.
For C/C(=N\NC(=O)c1ccc([N+](=O)[O-])cc1)c1c(O)cc(C)oc1=O the results were RGS16-Gao HTS 101, HSV augment inactive, PKD1 inh 5 and HSV augment primary fold 0.9.

From PubChem BioAssay
